Screening data from PubChem.
KCNQ2 pot: KCNQ2 (rat) channel potentiation; O88943; CHO-K1 KCNQ2, FluxOR thallium flux fluorescence; hits give high values; B-score at 10 µM; 310,000 tested, 0.54% active; AID 2239;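 active = fluorescence ratio B-score at least 3 SD of library B-scores, with initial fluorescence B-score within 3 SD, cut at about 5.3 in these data; same plate scores as AID 2156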;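 also: B-score of peak minus minimum over baseline fluorescence ratio after K+ and Tl+ stimulus; positive B-score means potentiation of KCNQ2 with more thallium influx and brighter signal; only the inactives scoring about 0 or higher are listed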
Target sequence (O88943 whole entry, looked up): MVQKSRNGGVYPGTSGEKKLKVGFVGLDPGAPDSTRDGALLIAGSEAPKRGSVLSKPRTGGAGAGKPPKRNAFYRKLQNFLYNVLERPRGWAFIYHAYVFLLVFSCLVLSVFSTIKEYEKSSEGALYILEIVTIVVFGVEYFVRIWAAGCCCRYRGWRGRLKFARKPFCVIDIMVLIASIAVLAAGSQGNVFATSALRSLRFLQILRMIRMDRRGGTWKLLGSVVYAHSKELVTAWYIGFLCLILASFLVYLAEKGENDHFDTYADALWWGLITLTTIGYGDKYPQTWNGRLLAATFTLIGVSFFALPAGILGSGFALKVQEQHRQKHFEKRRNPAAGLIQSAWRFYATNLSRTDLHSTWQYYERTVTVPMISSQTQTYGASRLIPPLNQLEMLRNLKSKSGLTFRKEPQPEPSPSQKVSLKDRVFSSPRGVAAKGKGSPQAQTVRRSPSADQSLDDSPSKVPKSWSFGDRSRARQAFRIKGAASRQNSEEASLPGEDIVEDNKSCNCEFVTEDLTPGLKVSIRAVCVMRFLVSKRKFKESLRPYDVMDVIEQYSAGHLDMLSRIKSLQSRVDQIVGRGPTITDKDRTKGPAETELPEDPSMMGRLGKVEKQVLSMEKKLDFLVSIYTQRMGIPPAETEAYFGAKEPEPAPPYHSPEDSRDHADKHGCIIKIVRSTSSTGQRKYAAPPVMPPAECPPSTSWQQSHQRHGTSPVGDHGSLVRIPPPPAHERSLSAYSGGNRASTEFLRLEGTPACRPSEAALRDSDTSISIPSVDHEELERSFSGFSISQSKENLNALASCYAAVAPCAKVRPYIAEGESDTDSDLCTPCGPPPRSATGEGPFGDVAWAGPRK
KCNQ2 pot baseline: second read-out of KCNQ2 pot, no call of its own (marks repeat the call); B-score; compound at 10 µM; measured here: initial fluorescence intensity artifact check;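 brightness before thallium and not channel activity; 0 = typical well and far values either way flag optical interference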
Starred values were filed as active, the others as inactive.

SMILES	KCNQ2 pot	KCNQ2 pot baseline
Cc1ccc(S(=O)(=O)NCCC(=O)OCC(=O)NC(=O)c2cccn2C)cc1	1.8	-0.26
CC(C)c1nnc(NC(=O)c2cc3cc(Br)ccc3oc2=O)s1	1.4	-0.59
Cc1cccnc1NC(=O)c1cccc(S(=O)(=O)N2CCCC2)c1	0.44	0.3
Cc1onc(-c2ccccc2Cl)c1C(=O)OCC(=O)N1CCN(c2ccccc2)CC1	0.01	0.73
CCNC(=O)COC(=O)c1[nH]c(C)c(C(=O)OC)c1C	0.59	-0.71
Cn1cnnc1SCC(=O)Nc1ccc(F)cc1F	0.83	1.8
Cc1ncoc1C(=O)N1CCCC(C(=O)c2cccc3ccccc23)C1 (configuration not stated)	1.6	-0.22
CCc1ccc(CNC(=O)c2ccc(OC)c(OC3CCN(C(C)C)CC3)c2)nc1	1.9	-0.03
CN1CCN(c2ccc(NC(=O)c3cccc(OCc4ccccc4)c3)cc2)CC1	0.41	1
O=S(=O)(NC(=S)NC1CCCCC1)c1ccc(Br)cc1	1.2	0.21
O=C(O)c1ccc(NC(=O)c2ccc(Cl)cc2)c(NC(=O)c2ccc(Cl)cc2)c1	3	-0.37
COC(=O)c1ccccc1NC(=S)N1CCC(N2CCCCC2)CC1	0.27	2.5
Cc1cc(C)n2nc(C(=O)Oc3ccc4c(c3)OCO4)nc2n1	1.4	-0.13
c1ccc2c(c1)CCN(c1nc3cc4c(cc3s1)OCO4)C2	0.44	0.27
CC(C)CCNC(=O)CN(Cc1ccc2c(c1)OCO2)C(=O)Cn1nnc(-c2cccs2)n1	0.99	1.3
Cc1cccc(C)c1NC(=O)C(C)c1ccc(-c2ccccc2)c(F)c1 (configuration not stated)	5.1	4.8
Cc1c(C=O)c2ccccc2n1CCOc1ccccc1	1.5	1.4
CCCOC(=O)c1c(-c2ccc(OC)cc2)oc2ccc(-c3ccc(OC)nc3)cc12	0.13	-0.24
O=C1CC(C(=O)Nc2cccc(F)c2)n2c(nc3ccccc32)N1 (configuration not stated)	0.08	0
CCC(CC)C(=O)N1N=C(c2ccc(NS(C)(=O)=O)cc2)CC1c1ccccc1 (configuration not stated)	0.01	0.55
COc1ccc(/C=N/Nc2ncnc3c2[nH]c2ccccc23)c(OC)c1OC	1.2	1
Cc1nc2c([N+](=O)[O-])c(C)c(C)cc2[nH]1	1.5	0
O=c1oc2c(CN3CCCCC3)c(O)ccc2c2c1CCCC2	1.2	1
CCN(Cc1ccncc1)C(=O)c1cccs1	0.39	0.05
Cc1cc(C)c2c(c1)C1(OCCO1)C(=O)N2	1.2	1.5

Overlap with the part before: six entries, followed by the next part.
SMILES	KCNQ2 pot	KCNQ2 pot baseline
CCC(CC)C(=O)N1N=C(c2ccc(NS(C)(=O)=O)cc2)CC1c1ccccc1 (configuration not stated)	0.01	0.55
COc1ccc(/C=N/Nc2ncnc3c2[nH]c2ccccc23)c(OC)c1OC	1.2	1
Cc1nc2c([N+](=O)[O-])c(C)c(C)cc2[nH]1	1.5	0
O=c1oc2c(CN3CCCCC3)c(O)ccc2c2c1CCCC2	1.2	1
CCN(Cc1ccncc1)C(=O)c1cccs1	0.39	0.05
Cc1cc(C)c2c(c1)C1(OCCO1)C(=O)N2	1.2	1.5
Cc1ccc2nc(N(CCCN(C)C)C(=O)COc3ccc(Cl)cc3)sc2c1	0.32	-0.44
Cn1nc(C(=O)NCCOc2ccccc2)c2ccccc2c1=O	0.77	0.04
O=C(CSc1nc(C2CCCCC2)n(-c2ccccc2)n1)NCCN1C(=O)CSC1=O	1.3	-1.2
CC(C)CNC(=S)NC(=O)c1ccc(Cl)cc1Cl	0.02	-2.1
CC(C)(C)C(=O)CN1C(=O)NC2(CCOc3ccccc32)C1=O (configuration not stated)	0.03	0.26
CCOc1ccc(/C=N/OCC(=O)NCc2cccs2)cc1	0.02	0.92
O=C(O)c1oc2ccccc2c1CN1CCN(c2ccccc2)CC1	0.01	-1.5
Cc1c(OC(C)C(=O)NCCCN2CCOCC2)ccc2c3c(c(=O)oc12)CCCC3 (configuration not stated)	2.3	0.03
CCCCNS(=O)(=O)c1ccc2nc(-c3cccnc3)cc(C(=O)NC(C)CC)c2c1 (configuration not stated)	0.37	-0.16
CCOc1ccc(C(=O)Cc2cc(OC)c(OC)cc2[N+](=O)[O-])cc1	2.1	-0.65
COc1ccc(NC(=O)COC(=O)[C@@H](NC(=O)c2c(F)cccc2F)C(C)C)cc1	0.34	-0.05
Cc1ccc(NC(=O)c2ccc(C)cc2)cc1	2.1	1.3
Cc1cc(Sc2nc(NC(C)(C)C)nc(N3CCOCC3)n2)nc(Cl)n1	1.1	-0.5
O=C(COC(=O)c1cccc(N2C(=O)C3CC=CCC3C2=O)c1)c1ccccc1 (configuration not stated)	0.71	-0.62
COc1cc(CNC2CCCCCC2)cc(OC)c1	0.73	0.84
COc1ccc(CNc2nnnn2C)cc1	0.96	-1.7
COC(=O)[C@@]12CCCCN1[C@H](c1ccc(-c3ccc(C(C)=O)cc3)cc1)[C@@H]1C(=O)N(C)C(=O)[C@@H]12	0.66	0.25
CCOC(=O)c1cnc2ccc(C(=O)OC)cc2c1Nc1ccc2c(c1)OCCO2	0.1	0.7
O=C(NCC1CCCO1)NC1CCCCC1 (configuration not stated)	0.83	-0.39
Cc1ccnc(NS(=O)(=O)c2ccc(NC(=O)c3ccc(S(=O)(=O)N4CCCC4)cc3)cc2)n1	0.57	-2.2
CC(C)n1nnnc1SCC(=O)NNC(=O)C1CCCCC1	0.75	-0.86
COc1ccc(CCn2nnnc2C(c2ccc(C)cc2)N2CCN(C)CC2)cc1OC (configuration not stated)	0.12	-0.4
CCCCNC(=O)C1CC(=O)N(CCc2ccc(C)cc2)C1 (configuration not stated)	0.07	0.35
COc1ccc(-n2c(Cn3c(=O)sc4ccccc43)nnc2SCC(N)=O)cc1	0.67	-1.4
Cc1ccc(Nc2c([N+](=O)[O-])c(=O)oc3ccccc23)cc1	0.95	1.3
(further entries)
SMILES	KCNQ2 pot	KCNQ2 pot baseline
O=C(CN(C(=O)CNC(=O)c1cccs1)c1ccc2c(c1)OCCO2)NC1CCCC1	0.97	0.12
OC(c1ccccc1)c1cccnc1 (configuration not stated)	0.21	-1
CCOc1cc(C2C3=C(CCCC3=O)N(C)C3=C2C(=O)CCC3)cc(Cl)c1O	0.08	-0.64
O=C(NCCC1=CCCCC1)C(=O)NCC1OCCCN1S(=O)(=O)c1ccccc1 (configuration not stated)	0.23	1.8
COc1cccc(CNC(=O)Cn2c(=O)c3cccn3c3ccccc32)c1	0.03	-0.24
CC(C)NC(=O)c1cc2c(s1)CCCC2	1.4	-2.1
COc1ccc(-c2[nH]nc3oc(=O)c(CCO)c(C)c23)cc1	1	2.1
O=S(=O)(Nc1ccc(-c2nc3cccnc3s2)cc1)c1ccccc1F	1.8	-1.1
Cc1ccc(C(=O)N2CCc3ccccc32)o1	1.2	0.05
Cc1ccc(C)n1-c1nc(=S)[nH][nH]1	1.4	0.2
O=C(c1ccc([N+](=O)[O-])o1)N1CCc2ccccc21	0.76	-0.01
O=C1CS/C(=C\[N+](=O)[O-])N1c1ccc(OC(F)(F)F)cc1	0.8	-1.3
O=Cc1cc(N=Nc2cccc(C(=O)O)c2)ccc1O	1.5	0.49
CNC(=O)CSc1nc2cccnc2n1-c1ccc(F)cc1	0.15	0.47
COc1cc(NC(=O)NCCN2CCN(c3ccccc3)CC2)cc(OC)c1OC	0.09	0.48
CC(C)C1Oc2cc3oc(=O)ccc3cc2C1=O (configuration not stated)	2.2	0.06
Cc1cc(SCc2ccccc2C)nc(=O)[nH]1	0.57	-0.41
Cc1cc(C)c(C)c(S(=O)(=O)ON2C(=O)c3ccccc3C2=O)c1C	0.01	-0.18
O=C(O)/C(=C\c1ccco1)NC(=O)c1ccccc1	0.79	-0.38
Cc1cc(=O)oc(C)c1C(=O)NCc1cccnc1	1.2	0.34
Cc1cc(NC(=O)CCCC(=O)N(c2ccccc2)C(C(=O)NC2CCCCC2)c2cccs2)no1 (configuration not stated)	1	-0.02
O=C(NC1CC1)C1CCCN(C(=O)Nc2ccc(F)cc2)C1 (configuration not stated)	0.74	-0.34
CC(/C=C1\SC(=S)N(CCCC(=O)Nc2ccc(C(=O)O)c(O)c2)C1=O)=C\c1ccccc1	1.4	0.06
O=C(CNC(=O)N1CC(=O)Nc2ccccc21)Nc1ccc(F)c(Cl)c1	0.22	0.46
CCN(CC)CCOc1ccccc1OC	0.19	1.6

Ordered by the number under KCNQ2 pot (high to low): 3 of the compounds above
SMILES	KCNQ2 pot	KCNQ2 pot baseline
CC(C)C1Oc2cc3oc(=O)ccc3cc2C1=O (configuration not stated)	2.2	0.06
COc1ccc(-c2[nH]nc3oc(=O)c(CCO)c(C)c23)cc1	1	2.1
O=C(CNC(=O)N1CC(=O)Nc2ccccc21)Nc1ccc(F)c(Cl)c1	0.22	0.46

(more compounds)
SMILES	KCNQ2 pot	KCNQ2 pot baseline
O=C(NCCc1ccc(Cl)cc1)C1CCC(=O)N1C1CCCC1 (configuration not stated)	0.41	0.79
Cn1c(=O)oc2cc(S(=O)(=O)N3CCN(c4ccccc4F)CC3)ccc21	0.45	0.06
Cc1cc(C)nc(SCC(=O)NN=C2CCCC2)n1	1.5	-0.44
COc1cc(/C=C2\C(=O)ON=C2c2ccccc2)cc(Cl)c1O	2.9	0.39
CCCNC(=O)c1cc(-c2ccc(OC)cc2)on1	0.28	0.45
C=CCNC(=O)C(=O)NCC(c1ccc2c(c1)OCO2)N1CCOCC1 (configuration not stated)	0.72	-0.15
O=C1CC(N2CCN(c3ccccn3)CC2)C(=O)N1c1ccc(F)cc1 (configuration not stated)	0.53	-1.5
COc1c(/C=N/NC(=O)c2ccccc2O)c(CCN(C)C(C)=O)cc2c1OCO2	1.9	-0.86
CN(C)CCNC(=O)c1c(CSc2ccccc2)noc1C(=O)NCc1ccccc1	1	-1.1
COc1ccc(OC)c(NC(=S)N2CCN(Cc3ccccc3)CC2)c1	1	-0.75
CC1(C)NC(=O)N(CC(=O)OCC(=O)Nc2cc(S(=O)(=O)N3CCCCCC3)ccc2Cl)C1=O	0.71	-1.9
COC(=O)c1ccc(CN2C(=O)c3ccccc3C2=O)cc1	0.16	0.87
CC1=CC(=Nc2c(C)n(C)n(-c3ccccc3)c2=O)C=CC1=O	0.45	-2.2
CCC(Oc1ccccc1)C(=O)Nc1ccccc1C(=O)N1CCN(C)CC1 (configuration not stated)	0.19	0.02
Cc1cc(C)nc(N2CCC(C(=O)NNC(=O)c3ccccc3)CC2)n1	0.53	0.58
CCOc1cc2c(C#N)c(N3CCCCC3)nc(N)c2c(N)n1	1.6	-0.43
O=C(CCNC(=O)Cn1ccc2ccccc2c1=O)NCCN1CCN(c2cccc(Cl)c2)CC1	2.6	0.24
NC(=O)NC1NC(=O)NC1=O (configuration not stated)	0.45	-0.24
CCN(CC)CCn1cnc2c1c(=O)n(CCOC(=O)c1cc(OC)c(OC)c(OC)c1)c(=O)n2C	0.03	-1.1
CCn1c(SCC(=O)NCc2ccccc2)nnc1-c1ccccc1O	0.37	-0.73
CCN(CC(=O)NCc1ccc(F)cc1)C(=O)COc1ccc(C)c(C)c1	0.06	-0.28
COc1ccccc1CNC(=O)COC(=O)Cc1c[nH]c2ccccc12	1.7	-0.82
O=C(Cn1nc(-c2ccccc2)c2ccccc2c1=O)NCCN1CCOCC1	0.86	0.19
CCc1ccccc1NC(=O)C(CC)Sc1nc2cc3c(cc2c(=O)n1Cc1ccco1)OCO3 (configuration not stated)	1.1	-1.2
O=C(CNC(=O)COc1ccccc1)NCc1cccnc1	1	1.9
Next entries.
SMILES	KCNQ2 pot	KCNQ2 pot baseline
O=C1NCC(c2ccccc2)C1C(=O)N/N=C\c1ccc(-c2cccc(Cl)c2Cl)o1 (configuration not stated)	0.13	2.2
COC(=O)c1ccc(COC(=O)CNC(=O)CNC(=O)c2ccc(C)cc2)cc1	0.27	4.4
CSc1ccc(-c2nc(O)c3cnccn23)cc1	0.02	0.79
CC(C)c1ccc(NC2CCCN(C(=O)CCN3CCCCC3=O)C2)cc1 (configuration not stated)	0.52	0.11
COc1ccc(NC(=O)Cn2nc3n(c2=S)CCC3)cc1	0.15	1
Cn1c(SCC(=O)Nc2ccc(Br)cc2)nc(O)cc1=O	1.4	-0.41
CC(=O)Nc1cccc(C(=O)OCC(=O)NCc2cc(C)c(O)c(C)c2)c1	0.29	2.4
CCOc1nc(NCCO)nc(NCCC2=CCCCC2)n1	1.3	-1.1
O=C(CSc1nnc(COc2ccccc2)o1)NC1CC2CCC1C2 (configuration not stated)	2.6	-1
COc1ccc(C(CNC(=O)C(=O)NC2CCCCC2)N2CCN(C)CC2)cc1 (configuration not stated)	0.03	1.3
CCc1cc(C(=O)c2ccc(OC)cc2)c(NC(=O)CC(C)(C)CC(=O)O)s1	2.1	-0.65
Cc1ccc2c(c1)N(CC(=O)NCCCN1CCOCC1)C(=O)C(C(C)C)O2 (configuration not stated)	0.34	-0.16
O=C(NCCc1cccc(Cl)c1)c1cccnc1	1	0.82
COc1ccc(Cl)cc1C(=O)NNC(=O)c1cccc(S(=O)(=O)N(C)C)c1	0.76	-1.3
Cn1c(=O)c2c(nc(NCCOc3ccc(C(C)(C)C)cc3)n2C)n(C)c1=O	0.69	-0.02
Cc1ccc(C(=O)C(OC(=O)c2cnccn2)c2ccccc2)cc1C (configuration not stated)	0.13	-0.41
O=C(CCC(=O)Nc1nnc(C2CCCCC2)s1)NCC1CCCO1 (configuration not stated)	0.3	-0.03
O=C(CSc1ccc2c(c1)OCCO2)Nc1ccc2c(c1)OCO2	1	-0.9
Cc1[nH]nc2c1C(c1cccc(O)c1)C1=C(CC(C)(C)CC1=O)N2 (configuration not stated)	1.1	1.6

Some of the compounds tested; count on the stated rates, not on these rows.
